Screening data from PubChem BioAssay.
Hsc70: small molecules displacing fluorescent ligand from Hsc70 – biochemical, fluorescence polarization, primary screen (AID 568). Hsc70 fluorescence polarization, probe displacement; higher % means a stronger effect; strong numbers were not always called active. 83,000 tested, under 10 active. displacement, % at 20 µM; hits with a dose series show IC50 in µM;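 active = displacement above 50% without optical interference and an IC50 on retest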;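 note: ATPase domain with a fluorescein-tagged ATP probe; 0% = vehicle and 100% = excess ADP; read after one hour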
WNV protease inh: blocks West Nile virus NS2B-NS3 protease activity. P06935. WNV NS2B-NS3 protease, fluorogenic substrate Ex360/Em465; active compounds read low. z-score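 (tested at a level between 10 and 100 µM)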. 0.18% of 65,000 active. AID 577;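 active = z-score at -3 or under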;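 note: score is relative to mean and spread of the compound wells of a plate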
Target sequence (P06935 1371-1501 limits assumed): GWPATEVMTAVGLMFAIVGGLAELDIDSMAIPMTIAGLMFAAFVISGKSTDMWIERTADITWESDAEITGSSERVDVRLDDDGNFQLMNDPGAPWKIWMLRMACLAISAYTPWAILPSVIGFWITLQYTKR
Target sequence (P06935 1502-1679 limits assumed): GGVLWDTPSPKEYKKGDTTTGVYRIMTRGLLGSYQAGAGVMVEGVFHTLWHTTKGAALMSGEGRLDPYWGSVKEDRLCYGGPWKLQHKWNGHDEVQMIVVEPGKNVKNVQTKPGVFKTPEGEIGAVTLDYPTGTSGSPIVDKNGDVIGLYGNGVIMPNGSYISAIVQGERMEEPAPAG
MT1-MMP promoter: inhibitors of MT1-MMP promoter transcription, cell-based, luciferase reporter, luminescence (AID 618); calls from a first round at 10 µM; hits with a dose series show EC50 in µM; 0.62% of 87,000 active; MT1-MMP promoter luciferase reporter cells, luminescence;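 active = over half of the reporter light lost at 10 µM or EC50 under 50 µM; inactive = the rest and hits that failed the dose series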;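 note: actives suppress MT1-MMP promoter-driven transcription so potencies describe inhibitors; HT1080 fibrosarcoma cells; overnight exposure; toxic or luciferase-blocking compounds were not removed from the actives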
* marks the source's active call; other numbers are inactive results; i = inactive; nt = not tested or not shown. This is a random part of the collection; 0.87% or so of the library scored in one or more.

SMILES	Hsc70	WNV protease inh	MT1-MMP promoter
CCCCOc1ccccc1NC(=O)CC1SC(=NCC)N(CC)C1=O (centres undefined)	-2.0%	-0.87	i
CCOC(=O)c1[nH]c2ccccc2c1NC(=O)CN1CCCCC1	-0.1%	-0.85	i
COc1ccc(-n2nc(C(=O)NCc3ccco3)c3c4ccccc4n(C)c3c2=O)cc1Cl	-4.3%	-0.9	i
COc1ccc(OC)c(NC(=O)c2nnn(Cc3ccc(Br)cc3F)c2N)c1	-2.2%	-0.2	i
COc1ccc(Oc2nc(Oc3ccc(OC)cc3)nc(Oc3ccc(OC)cc3)n2)cc1	-4.9%	-0.03	i
C/C=C/c1ccc(OCCn2cncn2)c(OC)c1	-5.0%	1.7	i
CCOc1ccccc1C(=O)Nc1cccc(-c2nnc(-c3ccccc3)o2)c1	2.7%	nt	i
CC(C)[C@@H](C(=O)NCC1CCC(C(=O)O)CC1)n1nnc2ccccc2c1=O (some centres undefined)	-0.2%	1.9	i
O=C(Nc1cc(C(F)(F)F)ccc1F)C1CCCC1	3.5%	nt	i
C=CCn1c(=N)n(CC(O)c2ccco2)c2ccccc21 (centres undefined)	3.1%	-0.55	i
CCCCCCc1cc2cc(-c3nnc(-c4cccc(OC)c4)o3)c(=O)oc2cc1O	-37%	nt	i
CCOc1ccc(NC(=O)C(CC)NC(=O)c2ccccc2CO)cc1 (centres undefined)	-5.6%	-1.4	i
Cn1ncc(Br)c1C(=O)Nc1ccc(Cl)cn1	-3.1%	-1.1	i
CCOc1cc(N2CCOCC2)c(OCC)cc1NC(=O)CSc1cccc[n+]1[O-]	-0.6%	-0.35	i
CCn1c(SCC(=O)Nc2nc3ccc(C)cc3s2)nc2c(c1=O)SC(C)C2 (centres undefined)	-9.4%	0.22	i
CCCCCCc1nc2ccccc2c(=O)n1NC(=O)c1c(O)c2cccc3c2n(c1=O)CC3	-1.5%	nt	i
CC(=O)c1c(C)n(C)c2ccc(OC(=O)c3ccco3)cc12	2.2%	-0.55	i
O=S(=O)(NCC1CCCO1)c1cccc(C(F)(F)F)c1 (centres undefined)	-3.0%	-0.07	i
COCCNC(=O)COC(=O)/C=C/c1cnc2ccccc2n1	2.5%	nt	i
N#CCCC12CCCCC1=Nc1ccccc12 (centres undefined)	13%	-0.91	i
CCOCCn1c(CN2CCN(c3ccccc3)CC2)nc2c1c(=O)n(C)c(=O)n2C	-0.2%	0.85	i
COc1cccc(NC(=O)Nc2cc(C)ccc2F)c1	0.8%	-0.47	i
CCN(CC)c1nc2ccccc2nc1C(C#N)C(=O)NCCc1ccccc1 (centres undefined)	121%	-0.52	i
CCCCC(=O)NCCc1cc2c(OC)ccc(OC)c2[nH]c1=O	4.3%	0.26	i
CNCc1ccccc1OCC(=O)Nc1ccccc1	2.7%	nt	i

COc1ccc(NC(=O)Cn2nnc(-c3ccccc3NC(=O)c3cccs3)n2)cc1
- Hsc70 = -3.6%
- WNV protease inh = -0.6
- MT1-MMP promoter = i
CC1(C)OC(=O)C(=CNCC(=O)NCC(=O)O)C(=O)O1
- Hsc70 = -5.1%
- WNV protease inh = 1.3
- MT1-MMP promoter = i
CCOC(=O)C(=O)/C(C#N)=C/Nc1ccc(Cl)cc1
- Hsc70 = -1.6%
- WNV protease inh = nt
- MT1-MMP promoter = i
CCN(CC)C(=O)c1cnn(-c2ccccc2)c1NC(=O)c1ccccc1F
- Hsc70 = 4.0%
- WNV protease inh = nt
- MT1-MMP promoter = i
COC(=O)C1(Cc2ccccc2)NC(c2ccccc2C)C2C(=O)N(c3ccc4c(c3)OCO4)C(=O)C21 (centres undefined)
- Hsc70 = -1.6%
- WNV protease inh = nt
- MT1-MMP promoter = i
Cc1cccc2sc(NC(=O)CCNS(=O)(=O)c3cccc4nonc34)nc12
- Hsc70 = 2.0%
- WNV protease inh = 0.17
- MT1-MMP promoter = i
Oc1ccccc1C1=Nc2ncnn2C(c2ccc(F)cc2)C1 (centres undefined)
- Hsc70 = -13%
- WNV protease inh = -1
- MT1-MMP promoter = i
O=C(OCCCN=C1NS(=O)(=O)c2ccccc21)c1ccccc1F
- Hsc70 = 0.8%
- WNV protease inh = nt
- MT1-MMP promoter = i
CCP(=O)(c1ccccc1)C(C)(C)O (centres undefined)
- Hsc70 = -2.6%
- WNV protease inh = -0.42
- MT1-MMP promoter = i
O=C(CCc1ccc(S(=O)(=O)NCCc2ccccc2)cc1)Nc1ccc2c(c1)OCO2
- Hsc70 = 2.4%
- WNV protease inh = nt
- MT1-MMP promoter = i

Reprinted at random: 2 entries already listed, in no set order.
Oc1ccccc1C1=Nc2ncnn2C(c2ccc(F)cc2)C1 (centres undefined)
- Hsc70 = -13%
- WNV protease inh = -1
- MT1-MMP promoter = i
COc1ccc(NC(=O)Cn2nnc(-c3ccccc3NC(=O)c3cccs3)n2)cc1
- Hsc70 = -3.6%
- WNV protease inh = -0.6
- MT1-MMP promoter = i

The list continues.
COc1ccc(OC)c(S(=O)(=O)N2CCC(C(=O)Nc3cccc(C)c3C)CC2)c1
- Hsc70 = 0.1%
- WNV protease inh = 1.3
- MT1-MMP promoter = i
CCNC(=O)CC1C(=O)N(c2cccc(OC)c2)C(=O)N1CCOC (centres undefined)
- Hsc70 = -2.8%
- WNV protease inh = -0.41
- MT1-MMP promoter = i
Cc1csc(SCC(=O)Nc2ccc(Cl)cn2)n1
- Hsc70 = -6.6%
- WNV protease inh = -1.3
- MT1-MMP promoter = i
COC(=O)C1=C(CSc2nccn2C)NC(=O)NC1c1cc(C)ccc1C (centres undefined)
- Hsc70 = -0.3%
- WNV protease inh = nt
- MT1-MMP promoter = i
CSc1nccn1CC(=O)Nc1ccc(F)cc1
- Hsc70 = -8.9%
- WNV protease inh = -1.2
- MT1-MMP promoter = i
Cn1c(=O)c2c(nc(CN3CCN(c4ccccc4)CC3)n2CCc2ccccc2)n(C)c1=O
- Hsc70 = 0.2%
- WNV protease inh = 1.9
- MT1-MMP promoter = i
CC(C)Oc1ccc(-c2cc(C(=O)NCCN3CCOCC3)c3ccccc3n2)cc1
- Hsc70 = 1.7%
- WNV protease inh = nt
- MT1-MMP promoter = i
CCOc1cc(C(=O)Nc2cc(C)on2)cc(OCC)c1OCC
- Hsc70 = 2.0%
- WNV protease inh = 0.78
- MT1-MMP promoter = i
COC(=O)c1nc2ccccc2s1
- Hsc70 = -6.1%
- WNV protease inh = nt
- MT1-MMP promoter = i
CN(Cc1ccco1)C(=O)C1CCC(=O)N1Cc1ccc(F)cc1 (centres undefined)
- Hsc70 = -6.6%
- WNV protease inh = -0.05
- MT1-MMP promoter = i

COc1cccc(-c2nnc(NC(=O)c3ccc(S(=O)(=O)N4CC(C)OC(C)C4)cc3)o2)c1 (centres undefined)
- Hsc70 = 0.9%
- WNV protease inh = -1.1
- MT1-MMP promoter = i
CCCCSc1nc(C)c(CC(=O)OC)c(=O)[nH]1
- Hsc70 = -2.2%
- WNV protease inh = 0.97
- MT1-MMP promoter = i
CS(=O)(=O)N(CCc1ccccc1)CC(=O)N1CCN(c2ccc(F)cc2)CC1
- Hsc70 = 6.3%
- WNV protease inh = nt
- MT1-MMP promoter = i
c1ccc(-c2noc(C3CCCCC3)n2)nc1
- Hsc70 = -2.2%
- WNV protease inh = -0.0044
- MT1-MMP promoter = i
COc1cc(C2=NOC(C(=O)N3CCN(c4ccc(F)cc4)CC3)C2)cc(OC)c1OC (centres undefined)
- Hsc70 = -0.1%
- WNV protease inh = 0.51
- MT1-MMP promoter = i
COc1cccc(C2CC(c3ccccc3Cl)n3ncnc3N2)c1 (centres undefined)
- Hsc70 = 0.0%
- WNV protease inh = -1.3
- MT1-MMP promoter = i
CN1CCN(c2nc3nonc3nc2N2CCN(C)CC2)CC1
- Hsc70 = 19%
- WNV protease inh = 0.4
- MT1-MMP promoter = i
CCOC(=O)N1CCN(C(=O)C2c3cc(OC)c(OC)cc3C(=O)N3CCc4ccccc4C23)CC1 (centres undefined)
- Hsc70 = 3.9%
- WNV protease inh = 0.06
- MT1-MMP promoter = i
CCc1cccc(NC(=O)CCc2nc(-c3cccs3)no2)c1
- Hsc70 = -11%
- WNV protease inh = -0.2
- MT1-MMP promoter = i
Cc1ccc(S(=O)(=O)C(C#N)c2nc3ccccc3nc2N2CC(C)OC(C)C2)cc1C (centres undefined)
- Hsc70 = 8.2%
- WNV protease inh = -0.75
- MT1-MMP promoter = i

Part of the list above, with values under each structure:
Below each SMILES: Hsc70, WNV protease inh, MT1-MMP promoter
Cc1csc(SCC(=O)Nc2ccc(Cl)cn2)n1
  -6.6%, -1.3, i
COC(=O)C1=C(CSc2nccn2C)NC(=O)NC1c1cc(C)ccc1C (centres undefined)
  -0.3%, nt, i
CSc1nccn1CC(=O)Nc1ccc(F)cc1
  -8.9%, -1.2, i
Cn1c(=O)c2c(nc(CN3CCN(c4ccccc4)CC3)n2CCc2ccccc2)n(C)c1=O
  0.2%, 1.9, i
CC(C)Oc1ccc(-c2cc(C(=O)NCCN3CCOCC3)c3ccccc3n2)cc1
  1.7%, nt, i
CCOc1cc(C(=O)Nc2cc(C)on2)cc(OCC)c1OCC
  2.0%, 0.78, i
COC(=O)c1nc2ccccc2s1
  -6.1%, nt, i
CN(Cc1ccco1)C(=O)C1CCC(=O)N1Cc1ccc(F)cc1 (centres undefined)
  -6.6%, -0.05, i
COc1cccc(-c2nnc(NC(=O)c3ccc(S(=O)(=O)N4CC(C)OC(C)C4)cc3)o2)c1 (centres undefined)
  0.9%, -1.1, i
CCCCSc1nc(C)c(CC(=O)OC)c(=O)[nH]1
  -2.2%, 0.97, i
CS(=O)(=O)N(CCc1ccccc1)CC(=O)N1CCN(c2ccc(F)cc2)CC1
  6.3%, nt, i
c1ccc(-c2noc(C3CCCCC3)n2)nc1
  -2.2%, -0.0044, i
COc1cc(C2=NOC(C(=O)N3CCN(c4ccc(F)cc4)CC3)C2)cc(OC)c1OC (centres undefined)
  -0.1%, 0.51, i
COc1cccc(C2CC(c3ccccc3Cl)n3ncnc3N2)c1 (centres undefined)
  0.0%, -1.3, i
CN1CCN(c2nc3nonc3nc2N2CCN(C)CC2)CC1
  19%, 0.4, i
CCOC(=O)N1CCN(C(=O)C2c3cc(OC)c(OC)cc3C(=O)N3CCc4ccccc4C23)CC1 (centres undefined)
  3.9%, 0.06, i
CCc1cccc(NC(=O)CCc2nc(-c3cccs3)no2)c1
  -11%, -0.2, i
Cc1ccc(S(=O)(=O)C(C#N)c2nc3ccccc3nc2N2CC(C)OC(C)C2)cc1C (centres undefined)
  8.2%, -0.75, i

Remaining list, next part:
O=C(O)c1cnn2c(C(F)F)cc(C(F)F)nc12
- Hsc70 = -3.6%
- WNV protease inh = nt
- MT1-MMP promoter = i
COC(=O)c1ccccc1NC(=O)CN1CCC(n2nnc3cc(C)ccc32)CC1
- Hsc70 = 0.4%
- WNV protease inh = -0.13
- MT1-MMP promoter = i
CCOC(=O)/C=C1\NC(=O)C(C)S1 (centres undefined)
- Hsc70 = 3.6%
- WNV protease inh = nt
- MT1-MMP promoter = i
Cc1cc(C)n(CCOc2ccc(Cl)cc2Cl)n1
- Hsc70 = 3.7%
- WNV protease inh = 0.04
- MT1-MMP promoter = i
